NPYLR7 ag – agonists of mosquito NPYLR7 receptor, primary screen, cell-based, Aedes aegypti, calcium fluorescence, mosquito biting behavior; hit rate 0.15% among 270,000; HEK293T NPYLR7/Galpha15, GCaMP6s calcium fluorescence; activation, % at 10 µM; AID 1259423, 2018; in the data active = activation above about 40%;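 note: 0% = vehicle and 100% = reference agonist at the receptor; some compounds past the cut are filed as inactive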
NPYLR7 ag max-min – further read-out of NPYLR7 ag, marked with its call; activation, %; measured here: Max-Min RFU normalised activation; some inactives read as strong as hits;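 span of the calcium signal over five minutes; 0% = vehicle and 100% = native peptide agonist; compound fluorescence can raise it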
The depositor's hits bear a star; & = joins results of further samples.

SMILES	NPYLR7 ag	NPYLR7 ag max-min
C=CCCC(O)CN(Cc1c(C)nn(-c2ccc(F)cc2)c1Oc1ccc(F)cc1)C(C)C (configuration not stated)	0	7
CCCN(CC#Cc1ccccc1)C(=O)c1ccc2c(c1)nnn2C	2	1
O=c1c2ccccc2c(C=NC2=NCCS2)c(O)n1-c1ccc(Cl)cn1	26	14
Cc1ccc(C2=CSC3=NS(=O)(=O)CCN23)s1	0	1
Cc1nc2cc(C(=O)N3CC(c4cccnc4)C3)ccc2n1-c1ccccc1	4	2
O=C1CCCN1CC1CCN(C(=O)c2ccc(-c3cncnc3)nc2)CC1	-3	-3
CC/C=C(/C)C(=O)N1CCCC(NS(C)(=O)=O)C1 (configuration not stated)	-2	-3
CC1(C)CC2C1CCC1(C)OC2(C)CCC1O (configuration not stated)	-4	-8
COc1cc(/C=C2\SC(=S)N(C(C)C(=O)O)C2=O)ccc1O (configuration not stated)	82*	84*
COc1ccc(/C=N\n2c(-c3ccc(Cl)cc3)csc2=N)cc1	2	-8
CNC(=O)CN1CCC(NC(=O)c2ccc(-n3cncn3)cc2)CC1	-6	-6
CCOC(=O)c1cnc(-c2ccc(OC)c(OC)c2)nc1N(C)C	22	26
Cc1ccc(CN2CCN(N=Cc3ccc(Br)cc3)CC2)cc1	-6	-8
OC1CSc2nc3ccccc3n2C1 (configuration not stated)	18	12
CCC(C)c1csc(NC(=O)N2CCN(c3cnccn3)CC2)n1 (configuration not stated)	-2	-2

Look-ups from the list:
NPYLR7 ag max-min result of O=c1c2ccccc2c(C=NC2=NCCS2)c(O)n1-c1ccc(Cl)cn1 : 14
NPYLR7 ag max-min result of Cc1ccc(CN2CCN(N=Cc3ccc(Br)cc3)CC2)cc1 : -8

Additional compounds
SMILES	NPYLR7 ag	NPYLR7 ag max-min
COc1ccc(NC(=O)Cc2csc(NC(=O)c3ccc[nH]c3=O)n2)cc1Cl	10	14
O=C(c1ccc(Cc2ccccc2)o1)N1CCC2(CC1)C(=O)NCN2c1ccccc1	3	-4
Cc1ccc(Cn2c(CCNC(=O)C(C)(C)C)nc3ccccc32)cc1	-11	-14
C=CCN(Cc1ccccn1)C(=O)c1ccc(-n2cccc2)cc1	2	2
COc1cc(C=CC(=O)c2cccc(N3CCOCC3)c2)cc(OC)c1OC	-6	-10
Cc1n[nH]c(C)c1CCCNC(C)CC(F)(F)F (configuration not stated)	0	-2
CC1(CC(=O)NN=Cc2ccc(Br)o2)SCCS1	6	12
COC(CNC(=O)c1cn(C)c2c(=O)n(-c3ccccc3)c(=O)[nH]c12)OC	-9	-11
O=C(CNC(=O)C1CC1(c1ccccc1)c1ccccc1)NCC1CCCCC1 (configuration not stated)	-5	-13
OC(CN1CCC(CN2CCCCCC2)CC1)c1ccc(OC(F)F)cc1 (configuration not stated)	5	5
Cc1cc(C)n(-c2ccc(C(=O)NC3CCN(Cc4ccccc4)C3)cc2)n1 (configuration not stated)	-2	-3
COc1ccc(Cl)cc1CN(C)Cc1ncccc1C(=O)O	-5	-8
COc1ccc(-n2nc([N+](=O)[O-])c(=NC3CCCCCC3)n2O)cc1	-9	-22
CC(=O)c1sc(NC(=O)c2nn(CC(C)C)c(=O)c3ccccc23)nc1C	-1	-2
O=S1(=O)N=C(CSc2ccccc2F)Nc2ccccc21	-1	1
COc1ccccc1Cn1c(C(=O)N2CCC(C(N)=O)CC2)cc2ccsc21	2	11
O=C(CC1=CCNCC1)N1CC[C@@H](c2ccc3ccccc3c2)[C@H](O)C1	8	-6
Cc1cccc2cc(C(=O)NCc3cccnc3N(C)C)oc12	1	3
CC1(Cc2cccc(C(F)(F)F)c2)C(=O)Nc2ccc(-c3ccsc3)cc21 (configuration not stated)	3	2
CC(=O)c1ccc(NC(=O)CSc2nc(=O)n3cc(C)ccc3n2)cc1	2	4
COc1ccc(CC2CN(Cc3cnn(-c4ccccc4)c3)CCO2)cc1 (configuration not stated)	12	5
CC(C)c1[nH]nc(C(=O)NOC2CCCCO2)c1Br (configuration not stated)	0	6
COc1ccc2c(c1)C1(SCCN1C(=O)c1ccco1)C(=O)N2Cc1cccc(C(F)(F)F)c1 (configuration not stated)	9	7
CC(C)(C)n1ncc(NCc2cccc3c2OCO3)c(Cl)c1=O	-22	-23
CC(NC(=O)CNC(=O)c1ccccc1)C(=O)NC1CCCC1 (configuration not stated)	11	7
COC(=O)c1cc(C)nc(N2CC3ON=C(c4ccccc4)C3C2)n1 (configuration not stated)	4	2
CC(=O)Nc1ccc(-c2nc(-c3cc(C)ccc3C)cs2)cc1	1	0
CC(C)(C)c1ccc(C(=O)NNC(=O)CCl)cc1	10	7
O=C(NCC1CCCO1)c1ccc2nc(-c3ccccc3)c(-c3ccccc3)nc2c1 (configuration not stated)	-10	-12
Cc1cc(C)n2nn[n+](C)c2n1	-7	-16
CN(c1ccc(C(=O)COc2ccccc2Cl)cc1)S(C)(=O)=O	13	5
CN1C(=O)Cc2cc(Br)ccc21	2	2
CN(Cc1ccccc1)Cc1cc(C(=O)NCC2(O)CCCCC2)no1	-7	-14
COCCNC(=O)c1cc(NC(=O)c2ccc(Br)cc2)ccc1N1CCC(Cc2ccccc2)CC1	19	25
CC(c1ccncc1)N1CC23C=CC(O2)C(C(=O)N[C@@H]2C[C@H]4CC[C@@H]2C4)C3C1=O (some centres not stated)	1	16
CCCCNC(=O)NNC(=O)c1sc2cc(CC)ccc2c1Cl	5	10
O=C1CSC(c2c(F)cccc2Cl)N1c1ccc(O)cc1 (configuration not stated)	-4	-13
COCCNC(=O)C1CCCN(C2CCN(C(=O)Cc3ccn(C)c3)CC2)C1 (configuration not stated)	9	5
Cc1ccccc1CSc1nnc(CNC(=O)c2ccccc2Br)n1-c1ccc(Cl)cc1Cl	24	21
O=C(O)c1cc(Br)cc(S(=O)(=O)NCC2CCCO2)c1 (configuration not stated)	4	2
CSc1ccc(COc2coc(CN3CCCN(C(=O)c4cnn(-c5ccccc5)c4C(F)(F)F)CC3)cc2=O)cc1	-5	-8
CCc1nc2ccc(C(=O)Nc3cccc(NS(C)(=O)=O)c3)cn2c1N(CCC(C)C)CCN(C)C	1	-9
O=C(O)CCn1c(O)c(C2=c3ccccc3=NC2=O)sc1=S	0	-5
O=C1CC(NC2CCCC2)C(=O)N1c1ccc(Cl)cc1 (configuration not stated)	-2	-3
O=C(O)c1cccc(N2C(=O)/C(=C/c3ccc(F)cc3)SC2=S)c1	-6	-11
COc1ccc(CCNC(=O)c2ccccc2NS(=O)(=O)c2c(C)cc(C)cc2C)cc1	3	14
Cc1ccc2[nH]cc(-c3cccc(-n4cnnc4)c3)c2c1	-1	-8
COc1ccc(-n2c(=O)c3ccccc3n(CC(=O)NCc3ccccn3)c2=O)cc1	-2	-1
Oc1nc(-c2ccc(Br)cc2)n2ccncc12	4	2
Cc1ccc(Cn2cccc2CN(Cc2ccccc2)Cc2ccccc2F)cc1	34	44
COc1cccc(CC(=O)NCc2cnn3ccccc23)c1	-4	-6
COc1cccc(COc2coc(CN3CCCN(S(=O)(=O)c4ccccc4C(F)(F)F)CC3)cc2=O)c1	20	9
COCC1(C(=O)NCCn2ccnc2)CCC1	5	2
COc1ccc(-c2cc(C(C)C)nc(C(F)(F)F)n2)c(OC)c1OC	-1	2
CCOc1cc(C(=O)N/N=C\C2CC3C=CC2C3)cc(OCC)c1OCC (configuration not stated)	-4	-9
O=C(CSc1nnc2n1CCCCC2)c1ccc(Cl)s1	0	-1
O=c1oc(-c2cccs2)nc2ccc(Cc3ccc4nc(-c5cccs5)oc(=O)c4c3)cc12	-1	-3
Cc1noc(NS(=O)(=O)c2ccc(N)cc2)c1C	-6&-6&-7&0&-4	-11&-11&-13&-1&-5
c1cc(CCN2CCN(C3CCC4(CCNCC4)CC3)CC2)ccn1	6	5
Cc1cccc(C(=O)Nc2cc(C(C)(C)C)nn2C)n1	0	1
The list continues.
SMILES	NPYLR7 ag	NPYLR7 ag max-min
CCCCOCCOCC(=O)N1CCc2c(sc3[nH]c(=O)n(Cc4ccccc4)c(=O)c23)C1	6	-3
O=C1/C(=C/c2ccc(-c3ccc([N+](=O)[O-])cc3)o2)C=C(c2ccccc2)N1c1ccc(Br)cc1	1	5
CC(=O)O[C@@H](C)C(=O)N1CCN(Cc2cc(=O)c(OCc3cccc(F)c3)co2)CC1	1	-1
COC(=O)c1cc(-c2cccc(OC)c2)on1	-4	-5
Nc1n[nH]c(C2COc3ccccc3O2)n1 (configuration not stated)	-2	-4
Cc1cc(C)n(-c2nnc(C)n2/N=C\c2cc(Cl)cc(Br)c2O)n1	2	1
CC(C)NC(=O)C(C#N)C(=O)C1CCCN1C(=O)C(C)C (configuration not stated)	0	7
Fc1cccc(CN2CCN(Cc3cccc(CN4CCOCC4)c3)CC2)c1	-2	-1
O=S(=O)(c1ccc(F)cc1)N1CCSC1c1ccccc1 (configuration not stated)	0	-2
Cc1onc(-c2ccccc2)c1CNC(=O)c1cncn1-c1ccc(-c2cc(C(F)(F)F)cc(C(F)(F)F)c2)cc1	21	4
O=C(Oc1cc(=O)oc2c1c(=O)n1c3c(cccc23)CC1)c1ccc(Cl)cc1	5	8
CC(Oc1ccc2c(c1)OCO2)C(=O)NCc1cccnc1-n1ccnc1 (configuration not stated)	8	8
CC(C)(C)NC(=O)COC(=O)C1=COCCO1	1	8
Cc1cc(NC(=O)c2cc(Cl)ccc2Cl)n(-c2nc3c(c(=O)[nH]2)CCC3)n1	5	1
COC(=O)c1ccc(CSc2ncnc3c2nnn3-c2ccc(F)cc2)o1	5	16
CSc1cccc(NC(=O)c2cccnc2Nc2cccc(C)c2C)c1	-1	-5
Cc1cccc(-c2nnc(C(C)Sc3nnc(C4CC4)n3C3CC3)o2)c1 (configuration not stated)	-4	8
CC(C)NC(=O)NC1C2C3CCC(C3)C12 (configuration not stated)	2	3
CCN(C(=O)CC1C=CS(=O)(=O)C1)c1ccccc1C (configuration not stated)	2	2
O=C(Nc1nnc(N=Cc2ccc(Br)s2)s1)c1cccs1	-4	-9
CC(c1cccnc1)N(C)C(=O)c1ccc(C#CC(C)(C)O)cc1 (configuration not stated)	7	6
CCOC(=O)C1C(=O)CC(C)(O)C(C(=O)OCC)C1c1ccc(Br)o1 (configuration not stated)	3	0
O=c1ccccn1CCCNc1ncnc2ccccc12	-4	363
COC(=O)c1c(NC(=O)c2ccc3ccccc3c2)sc2c1CCC2	-7	-10
CN1CC2(CCN(C(=O)CCCOCc3ccccc3)C2)OC1=O (configuration not stated)	8	5
Cn1c(=O)c2c(nc(Sc3nnc(N)s3)n2C)n(C)c1=O	5	1
CCC(C)CN(CC(=O)N(Cc1ccccc1)Cc1ccc(C)s1)C(=O)c1cc(C(F)(F)F)cc(C(F)(F)F)c1 (configuration not stated)	-1	9
COCCCNC(=O)c1cn(C)cc2c(=O)n(-c3ccccc3)nc1-2	6	6
CCOc1c(CC)cnc2c1c(=O)n(Cc1ccccn1)c(=O)n2C	-7	-8
Cc1ccc(-n2ncc3c(=O)n(NC(=O)c4ccc5c(c4)OCO5)cnc32)cc1C	0	-4
COc1ccc(-c2c(NC(=O)c3ccco3)n(-c3ccccc3)nc(C)c2=O)cc1	4	0
COc1ccc(-c2c(C)nn(-c3ccccc3)c2C)c(C(=O)NCc2ccccc2Sc2ccccc2CO)c1	-6	-10
CC(C)c1cc(C(=O)N2CCCC(C(=O)c3ccc4ccccc4c3)C2)nc(N)n1 (configuration not stated)	3&11	3&3
CCOc1nc(-c2ccc(C)cc2)n(-c2ccc(NCC(O)Cc3ccccc3)cc2)n1 (configuration not stated)	-1	-2
CCCCCCn1c(CN2CCN(C(=O)c3ccco3)CC2)nc2c1c(=O)n(C)c(=O)n2C	2	10
N#Cc1c(F)cccc1NCC(O)c1ccc(Cl)cc1 (configuration not stated)	7	4
O=C1O/C(=C2\CCc3ccccc32)c2ccccc21	1	-4
CCOC(=NCCN1CCCC1)NC(=O)c1cccs1	16	26
CCC(=O)NCC(=O)OC(C)c1nc2ccc(Cl)cc2[nH]1 (configuration not stated)	-3	-9
O=C1/C(=C\c2ccco2)NC(=S)N1c1ccccc1	23	11
Cc1ccc(-c2ccc(CCC(=O)NCCc3cccs3)n2-c2ccc(CC#N)cc2)c(C)c1	-3	-4
COCCN1CCC(CN2CC[C@@H](c3sccc3C)[C@H](O)C2)CC1	12	7
CCCNC(=O)Cn1cc(OC)c(=O)cc1CSc1nc(C)cc(C)n1	-2	-10
Cc1cc(C)c(C)c(S(=O)(=O)NC(c2cccs2)C2CC2)c1C (configuration not stated)	-5	-3

In the list so far, 14 have a thiophene ring, fused or not.
SMILES	NPYLR7 ag	NPYLR7 ag max-min
Cc1ccc(C2=CSC3=NS(=O)(=O)CCN23)s1	0	1
COc1ccccc1Cn1c(C(=O)N2CCC(C(N)=O)CC2)cc2ccsc21	2	11
CC1(Cc2cccc(C(F)(F)F)c2)C(=O)Nc2ccc(-c3ccsc3)cc21 (configuration not stated)	3	2
CCCCNC(=O)NNC(=O)c1sc2cc(CC)ccc2c1Cl	5	10
O=C(CSc1nnc2n1CCCCC2)c1ccc(Cl)s1	0	-1
O=c1oc(-c2cccs2)nc2ccc(Cc3ccc4nc(-c5cccs5)oc(=O)c4c3)cc12	-1	-3
CCCCOCCOCC(=O)N1CCc2c(sc3[nH]c(=O)n(Cc4ccccc4)c(=O)c23)C1	6	-3
O=C(Nc1nnc(N=Cc2ccc(Br)s2)s1)c1cccs1	-4	-9
COC(=O)c1c(NC(=O)c2ccc3ccccc3c2)sc2c1CCC2	-7	-10
CCC(C)CN(CC(=O)N(Cc1ccccc1)Cc1ccc(C)s1)C(=O)c1cc(C(F)(F)F)cc(C(F)(F)F)c1 (configuration not stated)	-1	9
CCOC(=NCCN1CCCC1)NC(=O)c1cccs1	16	26
Cc1ccc(-c2ccc(CCC(=O)NCCc3cccs3)n2-c2ccc(CC#N)cc2)c(C)c1	-3	-4
COCCN1CCC(CN2CC[C@@H](c3sccc3C)[C@H](O)C2)CC1	12	7
Cc1cc(C)c(C)c(S(=O)(=O)NC(c2cccs2)C2CC2)c1C (configuration not stated)	-5	-3

High-throughput results from PubChem BioAssay.

A portion of the library. The share of hits here may be higher or lower than overall.
